Source: PubChem BioAssay
KCNQ2 pot: KCNQ2 (rat) channel potentiation. CHO-K1 KCNQ2, FluxOR thallium flux fluorescence; hits give high values. B-score at 10 µM. 310,000 compounds, 0.54% hits;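 active = fluorescence ratio B-score at least 3 SD of library B-scores, with initial fluorescence B-score within 3 SD, cut at about 5.3 in these data; same plate scores as AID 2156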;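 also: B-score of peak minus minimum over baseline fluorescence ratio after K+ and Tl+ stimulus; positive B-score means potentiation of KCNQ2 with more thallium influx and brighter signal; only the inactives scoring about 0 or higher are listed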
Target sequence (O88943 whole entry, looked up): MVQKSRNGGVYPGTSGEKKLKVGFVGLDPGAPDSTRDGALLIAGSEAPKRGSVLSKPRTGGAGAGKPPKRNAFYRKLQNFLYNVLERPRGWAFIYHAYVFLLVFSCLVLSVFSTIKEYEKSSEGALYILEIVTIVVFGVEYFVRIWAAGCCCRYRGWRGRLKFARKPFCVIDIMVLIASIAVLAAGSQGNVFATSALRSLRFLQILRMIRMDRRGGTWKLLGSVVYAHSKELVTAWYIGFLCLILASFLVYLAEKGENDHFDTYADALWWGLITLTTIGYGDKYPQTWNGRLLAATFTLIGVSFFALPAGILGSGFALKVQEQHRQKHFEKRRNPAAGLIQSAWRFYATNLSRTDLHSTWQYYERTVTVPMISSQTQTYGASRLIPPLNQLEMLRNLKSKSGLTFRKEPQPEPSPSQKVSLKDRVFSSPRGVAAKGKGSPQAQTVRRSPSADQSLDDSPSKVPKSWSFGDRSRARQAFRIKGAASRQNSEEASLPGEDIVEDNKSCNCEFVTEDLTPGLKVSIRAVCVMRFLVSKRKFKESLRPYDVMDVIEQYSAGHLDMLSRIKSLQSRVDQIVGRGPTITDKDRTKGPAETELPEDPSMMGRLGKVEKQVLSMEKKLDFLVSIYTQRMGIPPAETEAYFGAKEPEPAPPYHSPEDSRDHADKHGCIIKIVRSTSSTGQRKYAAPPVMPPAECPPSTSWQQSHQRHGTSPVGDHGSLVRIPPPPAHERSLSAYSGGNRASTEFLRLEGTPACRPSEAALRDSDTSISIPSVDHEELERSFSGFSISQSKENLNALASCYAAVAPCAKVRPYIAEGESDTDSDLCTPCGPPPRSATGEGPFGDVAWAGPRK
KCNQ2 pot baseline: second read-out of KCNQ2 pot, no call of its own (marks repeat the call); B-score; compound at 10 µM; measured here: initial fluorescence intensity artifact check;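 brightness before thallium and not channel activity; 0 = typical well and far values either way flag optical interference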
Active calls of the source: *. Some of the compounds tested; the hit share may differ from the screen's.

SMILES	KCNQ2 pot	KCNQ2 pot baseline
CN1CCC(N(C)C(=O)CCc2nc3ccccc3c(=O)[nH]2)CC1	0.01	1.05
CCOC(=O)c1sc(=S)n(C)c1NC(=O)c1cccc(Br)c1	1.47	0.41
Cc1cc(NC(=O)c2ccc(Br)cc2)nc(C)n1	2.96	-2.43
CC(C(=O)Nc1ccccc1)N(C)Cc1cccs1 (configuration not stated)	0.71	-0.22
CCNS(=O)(=O)c1ccc(NC(=O)c2ccc(Cn3cc([N+](=O)[O-])cn3)o2)cc1	0.92	-0.66
COc1cc(CN2CCCN(C)CC2)cc([N+](=O)[O-])c1O	0.02	-1.2
CC1CN(C(=O)CCC(=O)NCc2ccccn2)c2ccccc2O1 (configuration not stated)	1.46	-1.28
COC(=O)C1=C(CS(=O)(=O)c2ccc(OC)cc2)NC(=O)NC1c1ccccc1 (configuration not stated)	0.44	-1.21
O=C(NCCCO)C(=O)Nc1cc2c3c(c1)CCN3C(=O)CC2	0.3	-0.49
COc1cccc(CNC(=O)C(=O)NCC2CCCO2)c1 (configuration not stated)	0.75	0.03
O=C(CCC1CCCC1)NCCS(=O)(=O)N1CCN(c2ccccc2F)CC1	0.64	-1.37
COc1ccc(OC)c(NC(=O)CSc2nc(C)cs2)c1	0.17	0.4
COc1ccc(S(=O)(=O)NCC2CCC(C(=O)NCCC(C)C)CC2)cc1 (configuration not stated)	0.26	-0.02
CCc1nnc(NC(=O)CSc2ccc(-c3cccs3)nn2)s1	1.09	0.9
CCC(C)N(C(=O)COC(=O)CCc1c[nH]c2ccccc12)C1CCS(=O)(=O)C1 (configuration not stated)	1.14	1.07
CCOC(=O)c1cnc2c(C#N)cnn2c1N	1.69	0.67
CCC(=O)C1=C(O)C(c2cccc(Oc3ccccc3)c2)CCC1=O (configuration not stated)	0.63	0.03
Cc1ccc(SCCC(=O)NC(C)(C)C)cc1	0.36	0.9
CCOC(=O)CSc1nc(C2CC2)cc(-c2ccc(F)cc2)c1C#N	0.81	-1.46
CCOc1cc(C2Nc3ccccc3C(=O)N2c2ccccc2)ccc1O (configuration not stated)	1.43	-1.36
CCOc1ccc(C(=O)N(Cc2ccc(OC)cc2)Cc2cc3cc(OC)ccc3[nH]c2=O)cc1	0.38	0.87
Cc1nn(C)cc1NC(=O)CCSc1nc(-c2ccco2)cc(C(F)(F)F)n1	0.73	-0.16
Cc1cccc(C)c1OCc1nnc2c3cnn(C)c3ncn12	1.16	4.92
COc1cccc(NC2SC(=O)N(c3ccccc3)C2=O)c1 (configuration not stated)	0.09	-1.02
Cn1c(SCC(=O)OC2CCCCC2)nnc1-c1ccc2c(c1)OCO2	0.13	-0.17
CCOC(=O)C(C)Oc1ccc2c(-c3cccc([N+](=O)[O-])c3)cc(=O)oc2c1 (configuration not stated)	0.04	1.83
Cc1cc(C)n(-c2ccc(C(=O)Nc3ccc(S(=O)(=O)N(C)C)cc3)cc2)n1	0.41	0
Cc1cc(NC(=O)CCC(=O)N(c2ccccc2)C(C(=O)NC2CCCC2)c2ccncc2)no1 (configuration not stated)	0.09	1.57
COc1ccc(-c2nn(-c3ccccc3)cc2C(=O)N2CCN(S(=O)(=O)c3ccccc3C#N)CC2)cc1	1.12	0.41
CS(=O)(=O)Nc1cc2c3c(c1)CCC(=O)N3CCC2	0.11	-0.2
Cc1n[nH]c(=O)c2c1nnn2Cc1ccccc1Cl	0.71	-0.9
CCOC(=O)C1=C(CCc2ccccc2)NC(=O)NC1c1ccc(Br)cc1 (configuration not stated)	0.82	-0.5
COc1ccccc1N(CC(=O)NC(C)(C)C)C(=O)CCC(=O)Nc1nccs1	2.93	-1.29
CCc1ccccc1N1CN(Cc2ccco2)CNC1=S	2.29	0.12
CCOC(=O)C1CCN(S(=O)(=O)c2ccc3[nH]c(=O)oc3c2)CC1	1.48	-0.57
Cc1ccc(NC(=O)C(C)OC(=O)Cn2cnc3ccccc3c2=O)cc1 (configuration not stated)	0.05	-0.34
Cc1ccc(NC2=NCCCCC2)cc1C	0.43	0.21
Cc1cc(C)c2nc(N(CCN(C)C)C(=O)/C=C/c3cccs3)sc2c1	0.78	-0.6
CCCCC(=O)Nc1nn(CCC)c2nc3ccccc3cc12	2.79	0.84
COc1ccc(Br)c(C(=O)N2CCN(S(=O)(=O)c3cccs3)CC2)c1	0.04	-1.27
CC(C)c1ccc(NC(=O)C(c2ccc3c(c2)OCO3)N2CCCCC2)cc1 (configuration not stated)	2.14	1.44
CN(C(=O)COc1cccc(Br)c1)C1CCS(=O)(=O)C1 (configuration not stated)	1.75	-0.03
Cc1ccc(NC(=O)CCNC(=O)c2ccco2)cc1	0.49	-1.11
CCCCOc1ncnc2c1[nH]c1ccccc12	0.83	0.55
C=CCN1CCN(C(CCC)c2nnnn2Cc2ccco2)CC1 (configuration not stated)	0.85	0.89
Cc1nonc1C(=O)N1CCCC(N2CCN(c3ccc(F)cc3)CC2)C1 (configuration not stated)	1.18	-0.89
O=C(Nc1ccc2c(c1)OCCO2)C1CCN(S(=O)(=O)c2ccc(Br)s2)CC1	1.04	0.35
CN(C)S(=O)(=O)c1cccc(NC(=O)c2ccc(S(=O)(=O)N3CCCCC3)cc2)c1	1.69	2.88
COc1cc2c(cc1OC)C(=O)CCS2	0.51	1.32
CCOC(=O)C1=C(C)Nc2ncnn2C1c1c[nH]c2ccccc12 (configuration not stated)	0.34	1.22
COc1cc2c(cc1NC(=O)COC(=O)c1ccc(C(C)(C)C)cc1)oc1ccccc12	1.62	0.05
Cc1oc2ccc(OC(=O)COc3c(F)c(F)c(F)c(F)c3F)cc2c1C(=O)OC(C)C	0.62	-0.97
CCC(CC)NC(=O)COc1ccc(OC)cc1C=O	1.64	-1.17
O=C1C(C=NC2CC2)=C(O)c2ccccc21	1.07	0
CCOc1ccc(/C=N/NC(=O)c2nnn(-c3nonc3N)c2CN2CCC(C)CC2)cc1	0.62	-0.8
CCc1ccc2c(COn3nnc4ccc(S(=O)(=O)N(C)C)cc43)cc(=O)oc2c1	0.08	0.39
Cc1cc(NC(=O)CSCC(=O)Nc2ccccc2OC(F)F)no1	1.02	0.48
Cn1c(SCC(=O)NCc2cccs2)nnc1-c1cccs1	1.14	1.52
Cn1c(CNC(=O)CNC(=O)Cc2ccc(Cl)cc2)cc(=O)n(C)c1=O	1.11	-0.11
O=C(Nc1ccccc1)Nc1ccccc1C(=O)NCc1ccccc1	2.44	-0.01
New compounds follow
SMILES	KCNQ2 pot	KCNQ2 pot baseline
CN(C(=O)CSc1nnc(COc2ccccc2F)n1N)C1CCCCC1	0.68	-0.58
CCCCCC(=O)Nc1ccc(-c2nnc3n2CCCCC3)cc1	0.79	-0.02
Cc1ccc(NC(=O)CC2SCCNC2=O)cc1Cl (configuration not stated)	0.79	1.18
CCOC(=O)c1[nH]c2ccc(OC)cc2c1NC(=O)CCN1CCc2ccccc2C1	0.76	-0.03
CCOc1cc(/C=N/NC(=O)C(=O)NC)cc(Br)c1O	0.1	-0.63
O=S(=O)(Nc1nccs1)c1ccc(NCc2cc(Br)cc(Br)c2O)cc1	0.64	0.12
O=C(CSc1n[nH]c(-c2ccccc2O)n1)NC1CCCCC1	0.45	0.06
O=C(CCN1C(=O)S/C(=C\c2ccc(Cl)cc2)C1=O)Nc1ccc(C(=O)O)cc1	0.49	-0.36
O=C(CSc1ncnc2nc[nH]c12)NCCc1ccccc1	1.52	0.03
Cc1ccc(CNC(=O)CCNS(=O)(=O)c2ccc3c(c2)c(=O)n(C)c(=O)n3C)cc1	0.32	-0.78
CCOC(=O)c1[nH]c2ccccc2c1N=C(C)N(CC)CC	1.1	2.35
O=C(CCc1nc2ccccc2[nH]1)N1CCN(C(=O)c2ccco2)CC1	1.04	-0.23
O=c1[nH]c(=O)n(Cc2ccco2)c2c1C(C(F)(F)F)(C(F)(F)F)N=C(c1ccc(F)cc1)N2	0.68	0.1
COc1ccc(/C=N/Nc2ccc(C(=O)O)cc2)c(OC)c1OC	0.72	0.03
COC(=O)c1cc(OC)c(OC)cc1NC(=O)CCC1CCCC1	0.55	-1.23
Cc1ccn2c(=O)c(C(=O)NCCCN3CCCC3=O)c(O)nc2c1	1.06	0.64
Cn1nnnc1SCc1cccc(CSc2nnnn2C)n1	0.5	4.35
COc1ccc(N2CCN(C(=O)CSc3nnc(Cn4nnc5ccccc54)n3C)CC2)cc1	0.68	1.72
O=C(NCc1cccnc1)c1ccc(Cn2c(=S)[nH]c3ccc(Br)cc3c2=O)cc1	0.85	0.56
Cc1nc2ccccn2c1C(=O)NNC(=O)Nc1ccccc1	0.51	0.56
CNc1ccccc1C(C)(C)c1cc(C)[nH]n1	1.49	0.01
Cc1onc(-c2ccccc2Cl)c1-c1nc(-c2ccncc2)no1	1.05	2.26
O=C(O/N=C/c1cccc([N+](=O)[O-])c1)C1CC1	0.61	-0.28
O=C(NCc1ccc(Cl)cc1)NCC(F)(F)F	0.7	-1.18
Cc1ccc(S(=O)(=O)NCCC(=O)NNC(=O)C2COc3ccccc3O2)cc1 (configuration not stated)	1.94	0.01
CCOC(=O)Cc1csc(NC(=O)CSc2nnnn2-c2ccc(C)cc2C)n1	0.87	0.02
Cc1ccc(C(=O)Nc2cc3c(oc2=O)CCCC3=O)cc1	2.8	1.67
O=C(CSc1nnc(-c2ccc(Cl)cc2Cl)n1C1CCCCC1)N1CCCC1	0.85	-0.35
Cc1ccc(S(=O)(=O)N2c3ccccc3NC(=O)C2CC(=O)Nc2ccccc2)cc1 (configuration not stated)	0.07	-0.65
COc1ccc(N2C(=O)C3NN=C(C(=O)OCc4ccccc4)C3C2=O)cc1 (configuration not stated)	0.67	1.16
O=C(N/N=C/c1c(Cl)cccc1Cl)C(=O)NC1CC1	2.77	-2.94
C=CCCN(Cc1ccccc1)S(=O)(=O)c1ccccc1Br	0.49	-0.07
Cc1ccc(NC(=O)C2CCN(c3ncnc4c3nc3n4CCCCC3)CC2)cc1Cl	0.07	0.07
O=C(Nc1ccc(Cc2ccncc2)cc1)c1ccc(S(=O)(=O)N2CCOCC2)cc1	1.31	-0.9
Nc1ccc(Cl)cc1/C(=N/O)c1ccccc1	0.06	0.08
CCC(=O)NNc1ncnc2ccccc12	0.92	1.34
O=C(O)C1=C(OCc2ccc(F)c(F)c2)C(=O)NCC1	1.46	-0.31
CCOc1ccccc1C(=O)N1CCC(C(=O)c2ccc(F)cc2)CC1	0.97	-1.16
Cc1c(C(=O)O)oc2ccc(S(=O)(=O)N3CCCCC3C(=O)O)cc12 (configuration not stated)	0.54	0.9
O=C(Nc1ccccc1N1CCCC1)c1cccnc1	0.15	0.07
Cc1cc(Cl)c2cc3ccccc3cc2n1	1.38	1.77
CNC(=O)c1sccc1Oc1ccc(F)cc1[N+](=O)[O-]	0.75	-0.08
CCOCc1nnc(NS(C)(=O)=O)s1	1.1	1.59
COc1ccc(CNC(=O)Cn2c(=O)oc3cc(S(=O)(=O)N4CCCC4)ccc32)cc1	0.94	-1.11
Cc1cc(C)c(C#N)c(SCCN2CCOCC2)n1	1.85	0.78
Cc1ccc(NC(=O)c2ccc(S(=O)(=O)Nc3c(C)n(C)n(-c4ccccc4)c3=O)cc2)nc1	3.08	-1.08
O=C(CN1CCC(Cc2ccccc2)CC1)NCCc1ccc(F)cc1	16*	-2.23*
COc1cc(-n2c(=O)c3ccccc3n(Cc3cc(=O)n4ccccc4n3)c2=O)cc(OC)c1OC	0.02	1.77
O=C(Cn1c(-c2ccccn2)nc2ccccc21)N/N=C/c1cccnc1	0.52	0.35
O=C(CSc1nnc(-c2ccncc2)o1)NCc1ccc(Cl)cc1	2.49	-0.35
Cc1ccc(C(=O)N/C(=C\c2cn(C)c3ccccc23)C(=O)NCCCN2CCOCC2)cc1	1.53	0.37
O=C(NC(=S)Nc1cccc(Cl)c1N1CCCC1)c1ccc(-c2cccc([N+](=O)[O-])c2)o1	0.28	-1.44
CCOC(=O)C1(Cc2ccccc2C)CCCN(Cc2ccc(NC(C)=O)cc2)C1 (configuration not stated)	2.32	-0.03
CC(C)CC(=O)Nc1ccc(N2CCN(S(C)(=O)=O)CC2)cc1	0.62	0.58
Cc1ccc2c(C(=O)CN3CCN(c4ccccc4)CC3)c(C)[nH]c2c1	0.59	0.05
CCOC(=O)c1ccc(Cl)c(S(=O)(=O)N2CCCC2)c1	0.05	-0.03
